# Compound activity from PubChem BioAssay.
# VACV mCherry inh: vaccinia inhibition (mCherry reporter). Vaccinia virus mCherry reporter infection, fluorescence; about a quarter of the inactives have no number. Potency, µM (doses to about 36.5 µM), without a hit: at the highest dose activity change, negative = inhibition, usual class: inhibitors. 310,000 tested, 0.63% active. AID 720579; active = well fitted inhibition curve with a large enough effect; inconclusive = small, poorly fitted or top-dose-only effect; inactive = no such curve, though single readings can be large or run the other way; tested in A549 cells; further: nearly all actives have a fitted effect of over 35% in size; inactives centre near -10
# Vaccinia Venus: vaccinia inhibition (Venus reporter); Vaccinia virus Venus reporter expression, fluorescence; 330,000 tested, 0.46% active; Potency, µM (highest dose often 36.5 µM), inactives show top-dose activity change, negative = inhibition, most hits filed as inhibitors; active means well fitted inhibition curve with a large enough effect; inconclusive means small, poorly fitted or top-dose-only effect; inactive means no such curve, though single readings can be large or run the other way; tested in A549 cells; further: nearly all actives have a fitted effect of over 30% in size; inactives centre near -10
# An asterisk follows results filed as active; i = inactive; ? = inconclusive; · = no result given; & = joins results of further samples; [ ] = dose if it differs, or a comment. On the % scale 0 is the no-effect control and ±100 the full control effect; potency means the concentration at half of the fitted maximal effect.
SMILES,VACV mCherry inh,Vaccinia Venus
COc1ccc2c(c1)[C@@]13CCCCC1[C@@H](C2)N(C)CC3 (stereo partly drawn),-19%,?
C=CCn1c(SCc2ccccc2F)nc2cc(C(=O)O)ccc2c1=O,i,-9%
Cc1ccc(C)c(N2CCN(C3C(=O)Nc4ccccc4-n4nnnc43)CC2)c1 (stereo not drawn),?,?
Cn1nccc1C(=O)NCc1ccc2c(c1)CCN2C(=O)c1ccccc1,-12%,-6%
C/C(=N\NC(=O)CC(C)C)c1ccc(Cl)c(Cl)c1,-12%,-30%
CC(C)N1CCN(Cc2cc3c(cc2Cl)OCO3)CC1CCO (stereo not drawn),-16%,-8%
CS(=O)(=O)Cc1cc(N2CCCC2)nc(-c2ccccc2)n1,-14%,-8%
Cc1cc(=O)[nH]c(-c2ccccc2)n1,-2%,-10%
CCCCCn1c(=O)c(C(=O)NCc2ccco2)c(O)c2ccccc21,3%,-9%
O=C(NC(=S)Nc1ccccc1[N+](=O)[O-])c1ccccc1,-20%,-16%
CC(C)CC1NC2(C(=O)N(C)c3ccccc32)C2C(=O)N(C(C)C)C(=O)C12 (stereo not drawn),i,-1%
COc1ccccc1/C=N\N=C(\N)c1ccccn1,-3%,-15%
CCCSCCCNC(=O)CC1Oc2ccccc2NC1=O (stereo not drawn),2%,-4%
CCCc1cc(=O)oc2cc(OCc3ccc(C(=O)O)o3)ccc12,-11%,2%
O=C1c2cccnc2C(=O)N1c1cccc([N+](=O)[O-])c1,-4%,-9%
Cc1ccc(C(=O)CSc2nc(-c3ccccc3)nc3c2CCCC3)cc1,-5%,-4%
O=C1c2ccccc2C(=O)N1c1ccc(S(=O)(=O)N2CCOCC2)cc1,1%,-9%
CSc1sc(C(=O)NNC(=O)c2ccc(Cl)cc2)c2c1C=CCC2,i,-8%
Cc1c(C2(O)CCCCC2)[nH]c2cnccc12,i,-21%
Cc1ccc2nc(-c3ccncc3)cc(C(=O)Nc3ccc(F)cc3C)c2c1,-6%,-7%
Cc1ccc(C(=O)c2ccccc2C(=O)Nc2ccccc2)cc1,?,-16%
CC(NC(=O)C(NS(=O)(=O)c1cccc2nsnc12)C(C)C)c1ccccc1 (stereo not drawn),-29%,-7%
CC(C)C(=O)N1CCN(S(=O)(=O)c2ccc3ccccc3c2)CC1,-12%,-24%
CN1CCN(S(=O)(=O)c2ccc(NC(=O)c3cccs3)cc2)CC1,·,-8%
CC1CC(C)(C)CC2(C1)NC(=O)N(CC(=O)OCc1ccc(Br)cc1)C2=O (stereo not drawn),-23%,-24%
CCOC(=O)C1=C(c2ccccc2)NC(=O)N(C(C)=O)C1c1cccc([N+](=O)[O-])c1 (stereo not drawn),-6%,-15%
Cc1cc(C)c(S(=O)(=O)N2CCCCC2C(=O)O)c(C)c1 (stereo not drawn),-19%,-2%
Cc1ccc(C)n1-c1ccc(N2CCOCC2)c(Br)c1,·,-22%
COc1ccc(NC(=O)CN(Cc2ccccc2)Cc2ccccc2)cc1S(N)(=O)=O,-3%,-15%
O=C(Cn1c(=O)n(Cc2ccc(C(=O)NCc3ccc4c(c3)OCO4)cc2)c(=O)c2ccccc21)Nc1ccccc1F,-8%,-11%

# Given with values under each structure: entries from further up
# Order of values: VACV mCherry inh, Vaccinia Venus
Cc1ccc(C(=O)c2ccccc2C(=O)Nc2ccccc2)cc1
  ?, -16%
CC(NC(=O)C(NS(=O)(=O)c1cccc2nsnc12)C(C)C)c1ccccc1 (stereo not drawn)
  -29%, -7%
CC(C)C(=O)N1CCN(S(=O)(=O)c2ccc3ccccc3c2)CC1
  -12%, -24%
CN1CCN(S(=O)(=O)c2ccc(NC(=O)c3cccs3)cc2)CC1
  ·, -8%

# (cont.)
SMILES,VACV mCherry inh,Vaccinia Venus
CCCCNC(=O)CC1N=C2c3ccccc3N=C(SCC(=O)Nc3ccc(OC)cc3)N2C1=O (stereo not drawn),-16%,-16%
Oc1cccc(CN2CCN(c3ncc(Cc4ccccc4)cn3)CC2)c1,-26%,-22%
COc1ccc(N2C(=O)CSC23C(=O)Nc2ccccc23)cc1 (stereo not drawn),-3%,-1%
O=C(Cn1nnc2c(cnn2-c2ccccc2)c1=O)N1CCN(c2ccccc2F)CC1,-4%,-16%
COc1ccc(/C=N/Nc2snc(SC)c2C#N)cc1OC,·,-29%
CC1CCCCN1CC(=O)c1c(N)n(Cc2ccccc2)c(=O)n(C)c1=O (stereo not drawn),i,-3%
O=C(NCc1ccccc1)c1ccc2c(=O)[nH]c3c(C(=O)NCC4CCCO4)sc(=S)n3c2c1 (stereo not drawn),-15%,-16%
COC(=O)[C@@H]1[C@H]2C[C@H]3c4[nH]c5ccccc5c4CCN3C[C@H]2CC[C@@H]1O,-4%,-16%
CC1CCC2(CC1)NC(=O)N(CC(=O)NCc1ccco1)C2=O (stereo not drawn),-13%,-1%
CCOC(=O)/C(C#N)=C/NC(=O)NC(C)(C)C,-3%,-2%
COC(=O)CN1C(=O)[C@H]2[C@@H](c3ccc(C)o3)N3C(=O)CN(Cc4ccc(-c5ccccc5)cc4)C(=O)[C@@]3(C)[C@H]2C1=O,-8%,-5%
COc1ccc(-c2cc(C(=O)OCC(=O)NC(C)C)c3ccccc3n2)cc1,-21%,-19%
COc1ccc(CNC(=O)C2CCN(S(=O)(=O)c3cccc4nonc34)CC2)cc1OC,2%,-5%
CC(=O)N1CCC(N(Cc2ccc(C)o2)C(=O)Nc2cccc(C(F)(F)F)c2)CC1,-4%,-7%
CCNS(=O)(=O)c1ccc(NC(=O)Cn2nc(C(F)(F)F)cc2C)cc1,-1%,-9%
O=C(CSc1nnc(-c2ccncc2)n1-c1ccccc1)Nc1ccc(Br)cc1,-7%,-10%
CC(C)C(=O)N1CCN(c2ccc(NC(=O)c3ccc(Br)o3)cc2)CC1,-23%,-17%
CC(=O)Oc1ccc(-c2cccc(C(=O)OCC(=O)N(C)c3ccccc3)c2)cc1,i,-14%
CCOC(=O)c1c(N)nn(C(=O)C(C)C)c1-c1ccccc1,i,-11%
COc1ccc(C(=O)NC2CC2)cc1OC1CCN(Cc2cnn(C)c2C)CC1,i,-17%
Cc1nnsc1NC(=O)OCc1ccccc1Cl,-7%[1.46 µM],?
CCN(CC)CCOC(=O)C1(c2ccc([N+](=O)[O-])cc2)CCCC1,-12%,-11%&-12%
C=C1CC(Cn2cc(Br)c(=O)[nH]c2=O)(c2ccc(-c3ccccc3)cc2)OC1=O (stereo not drawn),2.8µM*,7.9µM*
Cc1ccccc1NC(=O)CSC1=Nc2ccccc2C2=NC(Cc3ccccc3)C(=O)N12 (stereo not drawn),-14%,-12%
COc1ccc(-c2cc(NC=O)c3ncc(-c4cnn(C)c4)n3c2)cc1,-20%,-21%
Cc1ccc(C)c(CN2C(=O)c3ccccc3S(=O)c3ccc(C(=O)NCc4ccccc4)cc32)c1 (stereo not drawn),-17%,-10%
CC(Cl)=CCn1c(NCCc2ccccc2)nc2c1c(=O)n(C)c(=O)n2C,3%,-26%
O=C(c1cccc(Cl)c1)N1CCN(CCc2ccccn2)CC1,i,-24%
Cc1cc(C)c(C#N)c(SCc2ccccc2F)n1,-12%,1%
COc1ccccc1-c1csc(C(O)c2ccccc2)n1 (stereo not drawn),9%,5%
CS(=O)Cc1cc(Oc2ccccc2)nc(-c2ccncc2)n1 (stereo not drawn),i,-8%
COc1ccc(N(CC(=O)Nc2ccc3c(c2)OCCO3)S(=O)(=O)c2cccc(C)c2)cc1,-29%,-12%
CCOC(=O)c1ccc(NC(=O)c2nc[nH]c2C(=O)N2CCN(c3ccccc3)CC2)cc1,?,-19%
Cc1nc(C(=O)NC2CCOCC2)sc1C1(C)CC(c2cccc([N+](=O)[O-])c2)=NO1 (stereo not drawn),-10%,-9%
CC(C)(C)c1ccc(S(=O)(=O)NC(=O)C2(C)CCN2C(=O)C2CC2)cc1 (stereo not drawn),10%,2%
O=C(NCc1nc2ccccc2[nH]1)C1=C[C@H](C2CC2)C[C@H](OCCCCO)O1,-4%,-1%
Cc1ccc(/C=C/S(=O)(=O)NCC(=O)OCC(=O)Nc2c(F)cccc2F)cc1,i,-14%
O=C(Oc1ccccc1N1C(=O)C2CC=CCC2C1=O)c1ccc(Br)cc1 (stereo not drawn),-1%,-14%
COC(=O)c1ccc2nc(-c3ccc(C)cc3)c(Cc3cccc(F)c3)n2c1,-10%,0%
O=c1[nH]c(N/N=C/c2ccccc2Br)nnc1-c1ccccc1,i,-10%
CC(C)OCCCN1C=C2C(=O)C(C)(OC(=O)CCc3ccccc3)C(=O)C=C2C=C1c1ccc(C#N)cc1 (stereo not drawn),16%,-6%
CCOC(=O)COc1ccc(Br)cc1/C=C/c1[nH]c(=O)[nH]c(=O)c1[N+](=O)[O-],-14%,-13%
Cc1ccc(-c2nnc(Nc3ccc(F)cc3)c3ccccc23)cc1S(=O)(=O)N1CCN(C)CC1,-13%,-28%
C[C@H]1CN(c2ccccc2)C(=O)[C@@H]1CC(=O)Nc1ccccc1,-10%,-16%
CCOc1ccc2[nH]c(=O)c(CN(Cc3ccco3)C(=O)c3cccc(F)c3)cc2c1,·,-15%

# One compound at a time, as listed above. Screens in order: VACV mCherry inh | Vaccinia Venus
# Profile of `O=C(NCc1nc2ccccc2[nH]1)C1=C[C@H](C2CC2)C[C@H](OCCCCO)O1` → -4% | -1%
# Profile of `Cc1nc(C(=O)NC2CCOCC2)sc1C1(C)CC(c2cccc([N+](=O)[O-])c2)=NO1` (stereo not drawn) → -10% | -9%
# Profile of `C[C@H]1CN(c2ccccc2)C(=O)[C@@H]1CC(=O)Nc1ccccc1` → -10% | -16%
# Profile of `CCOC(=O)COc1ccc(Br)cc1/C=C/c1[nH]c(=O)[nH]c(=O)c1[N+](=O)[O-]` → -14% | -13%
# Profile of `CS(=O)Cc1cc(Oc2ccccc2)nc(-c2ccncc2)n1` (stereo not drawn) → i | -8%

# Returning to the listing with the 3 entries that preceded the break.
SMILES,VACV mCherry inh,Vaccinia Venus
Cc1ccc(-c2nnc(Nc3ccc(F)cc3)c3ccccc23)cc1S(=O)(=O)N1CCN(C)CC1,-13%,-28%
C[C@H]1CN(c2ccccc2)C(=O)[C@@H]1CC(=O)Nc1ccccc1,-10%,-16%
CCOc1ccc2[nH]c(=O)c(CN(Cc3ccco3)C(=O)c3cccc(F)c3)cc2c1,·,-15%
Cc1ccc(C(=O)CN(C(=O)c2ccc(Cl)c(Cl)c2)N2C(=O)C3C4C=CC(C4)C3C2=O)cc1 (stereo not drawn),-11%,-3%
O=S(=O)(Cc1ccccc1)CS(=O)(=O)Cc1ccccc1,i,-13%
CCCCCCCCNC(=O)c1cccnc1SCC(=O)Nc1ccc(OC)cc1OC,-14%,-11%
CCOP(=O)(C#CC(C)(C)C)C1(O)CCCCC1 (stereo not drawn),-9%,0%
Cc1ccc(OCCC(=O)Nc2ccc(S(=O)(=O)Nc3cc(C)nc(C)n3)cc2)cc1,-16%,-13%
COCCS(=O)(=O)N(Cc1ccc(Br)cc1)[C@@H](C)C(=O)OC,?,7.1µM*
CC(C)[C@H](NC(=O)c1ccccc1)C(=O)OCC(=O)Nc1sccc1C(N)=O,-6%,-2%
CCn1c(=N)c(C(=O)NCC2CCCO2)cc2c(=O)n3cc(C)ccc3nc21 (stereo not drawn),-2%,-5%
CCOc1ccccc1NC(=O)Cc1cccs1,-1%,-5%
Cc1ccccc1C(=O)N1CCN(S(=O)(=O)c2ccccc2)CC1,i,-11%
Cc1nn(CCC(=O)Nc2cc(F)ccc2F)c(=O)c2nn(-c3ccccc3)c(C)c12,i,-16%
O=C(NCCc1ccccc1F)C1CCCN1S(=O)(=O)c1ccccc1 (stereo not drawn),i,-15%
Cc1ccsc1CN(C(=O)c1ccc([N+](=O)[O-])cc1)C1CCS(=O)(=O)C1 (stereo not drawn),-13%,-8%
Cc1sc2nc(C3CC3)nc(N3CCN(C(=O)c4ccccc4F)CC3)c2c1C,-2%,-4%
CC1(C)CC(=O)C2=C(C1)N(CC1CCCO1)C(=O)NC2(C(F)(F)F)C(F)(F)F (stereo not drawn),-21%,1%
CCCCCCCCCc1ccc(OCCOCCO)cc1,-21%,?
O=C(COc1ccc(CNC[C@H]2O[C@@H](n3ccc(=O)[nH]c3=O)[C@H](O)[C@@H]2O)cc1)Nc1ccccn1,1%,7%
CC(O)[C@H]1CNCCN1CCc1cccc(F)c1 (stereo partly drawn),i,-15%
Cc1cc(C)cc(NC(=O)Cn2c(=O)n(Cc3ccc4c(c3)OCO4)c(=O)c3oc4ccccc4c32)c1,-30%,-16%
CCc1nnc(NC(=O)CSc2nnc(-c3ccc(OC)cc3)n2C)s1,-8%,8%
CN(C)n1cccc1/C=C(\C#N)S(=O)(=O)c1ccc(Cl)cc1,i,1%
COc1ccc(NC2CC(=O)N(C(C)C)C2=O)cc1 (stereo not drawn),-8%,2%
CC(=NNC(=S)N1CCCCC1)c1cccc(C)n1,0.32µM*,?
CCc1nc2ccc(C(=O)N(C)CCN(C)C)cn2c1N(CC)CCOC,36%[activator],-5%
COc1ccc(S(=O)(=O)N2CCCCCC2)cc1C(=O)NCCOc1ccc(C)cc1,-3%,-24%
S=C(NCCCN1CCOCC1)N1CCOCC1,i[7.34 µM],1%[7.34 µM]
Cc1ccccc1NC(=O)CSc1nnc(CNC(=O)c2ccc3c(c2)OCO3)n1C,-2%,1%
